From PubChem
RanGTP-Imp inh = disruptors of Ran-importin-beta complex formation – biochemical, FRET, CFP-Ran, YFP-importin-beta, homogeneous, primary screen. AID 2216. hit rate 1.1% among 300,000. cell-free CFP-Ran/YFP-importin-beta FRET ratio. inhibition, % (no concentration beside the values);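 active = most replicates above 15%; inconclusive = exactly half above 15%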;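 note: 0% = DMSO wells and 100% = Ran loaded with GDP instead of GTP; wells of about 40 µL received 100 nL stock; the first replicate is given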
ALR H2O2 inh = inhibitors of human sulfhydryl oxidase ALR; P55789; purified ALR, DTT oxidation, H2O2 HRP-luminol luminescence; inhibition, % (no concentration beside the values); hit rate 3.8% among 290,000;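 active = mean and each replicate at 75% or more; inconclusive = only one of the two met; inactive = neither met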;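 note: stock transfer was 7.5 nL into about 7.5 µL; 0% = neutral wells and 100% = wells with inactivated enzyme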
B2AR ag = human beta-2 adrenergic receptor agonism by FAP | P07550 | AID 504454 | response, % (test concentration not listed) | Am2.2-beta2AR cells, FAP receptor internalization, flow cytometry; reference of the scale not given here | hit rate 0.43% among 340,000;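 active = response above a set limit, near 3 SD of response in nonfluorescent compounds, cut at about 42% in these data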;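 note: stock transfer was 100 nL into about 11 µL; a reference agonist was the positive control; negative values mostly stem from fluorescent compounds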
HNF4A DNA FP = change in binding of human HNF4 alpha to DNA. P41235. HNF4a-FITC DNA binding, fluorescence polarization, 1 h. activity change, % at 10 µM. hit rate 0.3% among 360,000; in the data active = activity change above about 30%, passing the limit was not always enough;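 note: controls were the assay level and a saturating level of protein; the project sought stronger binding though the title names inhibitors; some compounds called inactive have numbers as strong as hits; positive values seem to mean higher polarization but the record does not say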
Calb FLC = affects C. albicans growth with fluconazole | C. albicans CaCi-2 (fluconazole-resistant clinical isolate) + fluconazole, Alamar Blue growth, 48 h | growth inhibition, % (test concentration not listed) | hit rate 0.57% among 300,000;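 active = most replicates above 75%; inconclusive = exactly half above 75%; inactive = most below 75%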;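 note: all wells also contain fluconazole at 8 µg/ml as a sub-toxic cotreatment; 0% = median of DMSO wells and 100% = median of geldanamycin control wells; wells of about 8 µL received 7.5 nL stock; the first replicate is given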
LANA-H2A inh = blocks KSHV LANA binding to histone H2A/H2B; Q9QR71; cell-free LANA-H2A/H2B peptide, fluorescence polarization; inhibition, % (concentration not given with the values); hit rate 0.6% among 320,000; in the data active = inhibition mostly above about 10%, no sharp cut-off; inactive = mostly below about 6.7%;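 note: stock transfer was 7.5 nL into about 10 µL; 0% = median of vehicle wells and 100% = median of positive control wells; one replicate is shown; the record names a cut of 25% in any replicate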
Target sequence (Q9QR71 whole entry, looked up): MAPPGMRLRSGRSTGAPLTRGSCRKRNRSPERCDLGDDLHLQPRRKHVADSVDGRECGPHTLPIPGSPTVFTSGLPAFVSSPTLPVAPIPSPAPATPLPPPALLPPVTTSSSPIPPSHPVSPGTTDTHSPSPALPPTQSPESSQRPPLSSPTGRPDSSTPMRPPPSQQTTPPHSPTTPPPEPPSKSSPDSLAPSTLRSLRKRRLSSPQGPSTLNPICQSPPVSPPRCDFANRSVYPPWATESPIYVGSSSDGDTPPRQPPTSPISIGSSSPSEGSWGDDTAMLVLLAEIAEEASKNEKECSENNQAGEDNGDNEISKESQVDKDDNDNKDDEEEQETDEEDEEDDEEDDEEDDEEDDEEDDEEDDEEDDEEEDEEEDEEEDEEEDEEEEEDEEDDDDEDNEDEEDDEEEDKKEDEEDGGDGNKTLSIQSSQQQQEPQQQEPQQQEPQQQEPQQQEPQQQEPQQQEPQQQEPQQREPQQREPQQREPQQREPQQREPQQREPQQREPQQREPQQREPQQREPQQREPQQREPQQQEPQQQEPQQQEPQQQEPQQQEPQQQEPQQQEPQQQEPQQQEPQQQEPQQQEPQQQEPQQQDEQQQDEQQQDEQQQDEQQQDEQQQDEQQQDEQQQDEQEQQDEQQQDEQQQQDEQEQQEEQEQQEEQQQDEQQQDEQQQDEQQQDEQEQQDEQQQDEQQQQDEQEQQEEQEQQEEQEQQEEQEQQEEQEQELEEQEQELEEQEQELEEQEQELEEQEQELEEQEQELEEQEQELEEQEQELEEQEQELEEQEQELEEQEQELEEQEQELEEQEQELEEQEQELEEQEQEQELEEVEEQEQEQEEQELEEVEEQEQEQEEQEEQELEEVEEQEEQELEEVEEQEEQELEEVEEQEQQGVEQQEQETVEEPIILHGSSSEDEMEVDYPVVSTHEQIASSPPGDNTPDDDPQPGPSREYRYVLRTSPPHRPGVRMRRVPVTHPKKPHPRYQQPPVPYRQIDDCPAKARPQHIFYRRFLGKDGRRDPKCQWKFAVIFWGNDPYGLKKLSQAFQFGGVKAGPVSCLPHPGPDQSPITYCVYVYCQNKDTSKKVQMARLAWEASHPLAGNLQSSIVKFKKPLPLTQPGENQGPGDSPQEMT
Vif TR-FRET = HIV-1 Vif–A3G interaction blockers – biochemical, TR-FRET, GST-Vif 1-94, biotin-A3G peptide, dose response retest, primary screen (AID 1117319). TR-FRET GST-Vif / biotin-A3G peptide binding; higher % means a stronger effect; test concentration not given here; strong numbers were not always called active. one-dose inhibition, %; IC50 in µM for titrated hits. hit rate 0.57% among 260,000;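 active = above the screen mean plus three standard deviations and confirmed in dose response; inconclusive = results disagree or hit not tested in dose response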;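 note: Vif residues 1-94 fused to GST binding biotinylated APOBEC3G peptide 110-148; 0% = full assay without inhibitor and 100% = GST in place of GST-Vif; retest series ran down from 100 µM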
Active calls of the source: *; ? = inconclusive; nt = not tested or not shown. Outcome played no part in choosing rows, and some 6.3% of all compounds hit somewhere here.

SMILES	RanGTP-Imp inh	ALR H2O2 inh	B2AR ag	HNF4A DNA FP	Calb FLC	LANA-H2A inh	Vif TR-FRET
Cc1ccc(S(=O)(=O)N(C)C)cc1NC(=O)COC(=O)CC1CCCC1	3.0	9	10	-0.5	-4	3.7	6%
CCOC(=O)c1sc(N)c(C(N)=O)c1C	-0.4	-4	-2	-0.4	28	5.4	nt
O=C(CCCCCn1c(=S)[nH]c2ccc(N3CCOCC3)cc2c1=O)NCc1ccc(Cl)cc1	0.4	nt	14	2.5	3	nt	0%
Clc1ccccc1-c1ccc(/C=N/Nc2nncc(-c3ccccc3)n2)o1	-4.2	-3	19	-1.8	1	2.1	-5%
Cc1cccc2c(CC(=O)O)noc12	5.5	nt	14	0.8	37	-2.8	22%
CCN(CC)C(=O)C1CCN(S(=O)(=O)c2ccc(C3CNC(=O)C3)cc2)CC1 (configuration not stated)	3.1	-14	3	-2.5	-1	0.0	23%
COc1cccc(-c2nnc(SCC(=O)N3CCOCC3)o2)c1	nt	-3	2	-0.7	-2	-1.2	72%
COCCSc1ccccc1C(=O)Nc1cccnc1	-1.0	1	5	2.4	-4	1.4	-1%
O=C(CNC(=O)c1ccc(OC(F)F)cc1)NCC1(N2CCOCC2)CCCCC1	nt	-1	-6	2.2	nt	3.8	-2%
Cc1sc2ncnc(N3CCC(C(=O)NNC(=O)COc4ccccc4F)CC3)c2c1C	4.8	2	11	1.4	nt	-0.2	-4%
O=C(CN1CCOc2ccccc21)NC1CC1	5.3	87*	1	2.5	-3	-0.4	-1%
O=C(C=Cc1cccs1)c1ccc(Cl)s1	nt	nt	6	2.8	nt	nt	-4%
COCc1cc(=O)[nH]c2cc(NC(=O)C(F)(F)F)c(C)cc12	-0.8	-1	12	0.3	21	-0.4	29%
CC(=O)Nc1ccc(S(=O)(=O)Nc2cc3c(cc2C(C)=O)OCO3)cc1	4.0	0	-3	3.0	-1	-6.2	3%
O=C(CCl)NCc1cc(-c2ccc(Cl)cc2)no1	?	97*	-10	0.7	9	-1.1	12%
COc1ccc(Cl)cc1NC(=O)NCCN1CCCCC1	-5.1	-40	3	1.4	0	-5.0	nt
CN(CC(=O)Nc1ccccc1C(=O)NC1CC1)Cc1ccc(Cl)cc1	nt	-1	1	-1.4	nt	-6.0	30%
CC(/C=C/c1ccco1)=N\NC(=O)COc1ccc(C)c(C)c1	1.9	1	6	2.7	21	-1.7	nt
CCN(CC)S(=O)(=O)c1ccc(S(=O)(=O)Nc2ccc3c(c2)oc2ccccc23)cc1	4.7	-12	3	2.9	15	1.9	4%
COc1ccc(CCC(=O)NNC(=O)Nc2ccc(C(C)=O)cc2)cc1	0.1	-1	4	6.2	-3	5.0	nt
Cc1cccc(OC(C)C(=O)OCC(=O)N2CCN(c3ccccc3)CC2)c1 (configuration not stated)	nt	17	-5	-1.6	nt	-3.6	-3%
CN(CC(=O)Nc1cccnc1)S(=O)(=O)c1ccc(Br)cc1	3.2	-1	1	4.8	7	-4.5	nt
CCOC(=O)c1c(C)nc2c(c1-c1ccccc1)C(=O)CCC2	-1.9	-4	-3	-2.0	6	-3.3	14%
Cc1ccc(S(=O)(=O)N2CCOCC2)cc1C(=O)NC1CCSc2ccccc21 (configuration not stated)	0.3	0	10	-0.3	6	3.5	nt
CC(CC(=O)O)CC(=O)NNC(=O)c1cccc(Br)c1 (configuration not stated)	3.9	-11	5	1.9	4	-0.8	-3%
Cc1ccc(OCCSc2nnc(C)c(=O)n2N)cc1	1.0	-21	0	-0.1	-3	-3.7	?
O=C(c1cc(-c2ccco2)on1)N1CCc2ccccc2C1	-1.5	2	-6	-4.2	?	-1.8	24%
Cc1c(N2C(=O)/C(=C\c3cccc4ccccc34)SC2=S)c(=O)n(-c2ccccc2)n1C	-3.7	-3	25	2.5	7	-0.8	8%
CC(C)=CCOc1ccc([C@@H]2COc3c(ccc4c3C=CC(C)(C)O4)C2)c(O)c1	-0.2	-2	6	-0.8	0	5.4	nt
CCOC(=O)CN1C(=N)N(c2nc(NC(C)C)nc(NC(C)C)n2)CC1=O	4.9	10	-10	0.9	-19	-1.8	-6%
O=S(=O)(c1cc(Cl)ccc1Cl)N1CCCC1	-4.8	nt	-3	-1.9	-2	-3.7	-4%
Cc1cc(OCC(=O)Nc2cnn(CCCC(=O)O)c2)ccc1[N+](=O)[O-]	3.1	-14	9	0.6	-9	-0.4	nt
COc1ccc(C(=O)NCCCNC(=O)c2ccco2)cc1OC	3.1	0	1	-2.8	?	3.5	nt
COc1ccc(NC(=O)COc2ccc(/C=N/O)cc2OC)cc1	-3.7	66	-7	4.4	23	14	-6%
O=S(=O)(NCCSc1nnnn1-c1ccccc1)c1cccs1	-4.7	-1	-1	-3.8	-14	-4.0	-6%
CC(=O)c1c(O)c2ccccc2n(C)c1=O	1.5	0	-3	-0.1	-24	2.5	nt
O=C(CCS(=O)(=O)c1ccc2c(c1)NC(=O)CO2)NCCc1ccccc1	4.2	-6	-6	1.5	0	-0.2	1%
O=C(NCC(c1ccco1)N1CCCCC1)c1ccc(S(=O)(=O)Nc2ccccc2)cc1 (configuration not stated)	-2.5	-1	7	3.1	-2	1.1	2%
Cc1ccc(/C=N/NC(=S)Nc2cccc(S(=O)(=O)N(C)C)c2)o1	1.4	6	-14	6.3	-1	13	?
CCOC(=O)C1C(C(=O)OC)=C(C2=CCCCC2)c2ccccc2N1S(=O)(=O)C(F)(F)F (configuration not stated)	nt	nt	3	0.6	nt	nt	-4%
CN(C)S(=O)(=O)c1cccc(NC(=O)c2cc3c(cc2Cl)N2CCCCCC2=NS3(=O)=O)c1	-5.0	-1	-6	0.1	-4	-5.1	nt
COc1cc(/C=N/NC(=O)Nc2cccc3nsnc23)cc(OC)c1OC	-0.6	nt	4	0.6	-7	nt	2%
CC(=O)Nc1ccc(SCCN2CC[C@@H](C)CCC2=O)cc1	nt	99*	-4	-5.0	nt	-0.3	nt
COc1ccc(C(C)(C)C)cc1NC(=O)c1cc(S(=O)(=O)N(C)C)ccc1N1CCCC1	?	nt	-2	0.3	-12	nt	-1%
C=CC[C@@H](CC(=O)N[C@H](CO)Cc1ccccc1)C(=O)N[C@H](COC(=O)[C@@H](CC=C)Cc1ccc(F)cc1)C(C)(C)C	nt	-4	7	6.2	nt	-2.6	nt
COC(=O)CCCC1=CC2=C(c3ccccc3)C(=O)C(C)(OC(=O)C3CCCC3)C(=O)C2=CN1C(CO)CO (configuration not stated)	3.6	nt	4	-3.2	3	6.8	16%
O=C(COC(=O)c1cc[n+]([O-])cc1)Nc1ccc(F)c([N+](=O)[O-])c1	1.8	-30	-2	-2.5	0	2.5	-1%
COC(=O)c1cc(NC(=O)COC(=O)CN2C(=O)C3CC=CCC3C2=O)cc(C(=O)OC)c1 (configuration not stated)	nt	nt	17	-2.3	nt	nt	-6%
COc1ccccc1CNC(=O)Cn1cccc1C(=O)c1ccccc1C	1.8	-1	-6	-2.1	-9	0.2	nt
O=C(N/N=C\c1c[nH]c2ccccc12)c1ccc(O)cc1	-1.2	46	1	-0.8	-2	74*	-3%
COC(=O)C1=C(C(=O)c2ccc(C)cc2)C(c2ccccc2)n2nnnc2N1 (configuration not stated)	-1.0	0	10	0.4	7	2.3	-11%
N=c1c(C(=O)NC2CCCC2)cc2c(=O)n3ccccc3nc2n1CC1CCCO1 (configuration not stated)	174*	3	-8	3.6	-7	-1.9	nt
COc1cccc(-c2cc(C(=O)N3CCN(C(c4ccccc4)c4ccccc4)CC3)no2)c1	0.3	0	0	2.4	2	-4.4	15%
CCOc1cccc(NC(=O)CSc2sc3c(O)cc(=O)[nH]c3c2C#N)c1	-0.7	99*	-2	-3.2	3	-3.9	nt
COc1ccc(CCn2c(=N)c(C(=O)NCc3ccco3)cc3c(=O)n4ccccc4nc32)cc1	22*	nt	18	-13	-7	0.5	20%
CC12CCC(=O)N1C(C(=O)NNC(=O)COc1ccc(Br)cc1)CS2 (configuration not stated)	nt	6	5	-1.1	2	-1.8	2%
CN1CCN(S(=O)(=O)c2ccc3c4c(cccc24)C(=O)N3)CC1	3.6	-17	9	-0.6	19	0.2	3%
CC(C)CNC(=S)NC(=O)c1ccccc1Cl	-2.1	0	1	-1.8	6	2.4	-13%
CSc1nc2c(c(=O)[nH]1)C(c1ccc(C(F)(F)F)cc1)CC(=O)N2 (configuration not stated)	2.2	-18	-8	-2.4	3	3.9	-6%
COc1cccc(CCc2nnc(CCC(=O)NC(C)Cc3cccs3)o2)c1 (configuration not stated)	2.0	nt	-5	-1.6	-7	-2.5	19%

The list goes on.
SMILES	RanGTP-Imp inh	ALR H2O2 inh	B2AR ag	HNF4A DNA FP	Calb FLC	LANA-H2A inh	Vif TR-FRET
Cc1cccc(Nc2ncnc3ccccc23)c1	0.7	-6	-4	10	-1	-5.0	15%
NS(=O)(=O)c1ccc(CCNC(=O)c2cc(-c3ccc(Br)cc3)nc3ccccc23)cc1	0.1	-2	1	1.4	17	13	-17%
O=C(NN=C1CCCCCCC1)c1ccccn1	-1.5	13	-8	-4.2	43	1.0	9%
Cc1ccc(NC(=O)c2ccccc2)cc1-n1cnnn1	4.3	-3	-9	-0.1	9	-0.7	-1%
CC(C)C[C@H](NC(=O)[C@@H](O)[C@H](N)Cc1ccccc1)C(=O)O	-2.8	-4	nt	nt	nt	-4.8	nt
Cc1cc(OC(=O)c2cc(Cl)nc3ccccc23)ccc1Cl	?	6	-5	-2.1	41	-4.1	-3%
COc1ccc(NC(=O)c2ccc3c(c2)C(=O)N(Cc2cccnc2)C3=O)c(OC)c1	-8.9	-57	6	-2.4	3	-5.2	?
CS(=O)(=O)N1CCC(C(=O)NCc2ccco2)CC1	2.6	-2	2	-1.6	-10	0.8	12%
CCOC(=O)COc1ccccc1C(=O)c1cnn(-c2ccccc2)c1	2.2	nt	0	0.1	-7	-1.0	6%
COCc1cc(C)nc(SCC(=O)Nc2nc(C)cs2)c1C#N	3.4	-4	3	-2.1	2	12	nt
COc1cc(OC)c(OC)cc1/C=N/NC(=S)NCCN1CCOCC1	4.3	6	-1	-3.6	-7	0.8	1%
CC(=O)N1c2ccc(S(=O)(=O)N3CCCC3)cc2CC1C(=O)NCc1ccc(N(C)C)cc1 (configuration not stated)	2.0	48	-1	4.6	35	16	nt
COc1ccccc1NC(=O)c1ccc(CN2CCOCC2)cc1	-3.1	0	11	-4.0	8	-0.1	-1%
CN1CCN(C(=O)c2ccc3c(c2)N(Cc2ccc(F)cc2)C(=O)c2ccccc2S3=O)CC1 (configuration not stated)	-7.1	68	8	-2.6	-1	-0.2	nt
COC(=O)c1nnn(-c2ccc(Cl)c(Cl)c2)c1C(=O)OC	2.2	-13	30	3.0	-33	3.6	-1%
Cc1ccnc(NS(=O)(=O)c2ccc(NC(=O)C3CC=CCC3C(=O)O)cc2)n1 (configuration not stated)	2.5	-8	-3	2.1	-11	-2.3	3%
O=C(CN1CCN(c2ccc(F)cc2)CC1)N(C1CCCC1)C1CCS(=O)(=O)C1 (configuration not stated)	nt	nt	-3	-1.4	nt	1.6	nt
COc1cc(C(=O)NCc2nnc(SCC(=O)N3CCCc4ccccc43)o2)cc(OC)c1OC	4.5	-14	-8	3.3	-11	2.2	5%
Cc1cc2c(c(SCC(=O)N(C)c3ccccc3)n1)C(=O)OC2	-11	-3	-27	3.0	-1	0.4	4%
Cc1ccc(S(=O)(=O)N/N=C/c2ccc(OCC(=O)N3CCOCC3)cc2)cc1	?	15	7	4.9	-2	1.9	7%
CN1CC(=O)N(CC(=O)Nc2ccc(Br)cc2F)C1=O	-2.0	-7	-5	1.5	-4	-0.9	-4%
